# Compound activity deposited in PubChem by National Center for Advancing Translational Sciences (NCATS).
# Six1-Eya2 blk = blocks human Six1 binding to Eya2; actives 0.56% (n = 360,000); Q15475+O00167; AlphaScreen GST-Six1/His-Eya2 binding, biochemical; hits give low values; control for the full effect not named in the record; activity change, % (concentration not given with the values); in the data active = activity change below about -65%; inconclusive = about -30% to -65%; inactive = above about -30%; also: % is scaled to controls: 0 for no effect and ±100 for the full control effect
# Target sequence (O00167 whole entry, looked up): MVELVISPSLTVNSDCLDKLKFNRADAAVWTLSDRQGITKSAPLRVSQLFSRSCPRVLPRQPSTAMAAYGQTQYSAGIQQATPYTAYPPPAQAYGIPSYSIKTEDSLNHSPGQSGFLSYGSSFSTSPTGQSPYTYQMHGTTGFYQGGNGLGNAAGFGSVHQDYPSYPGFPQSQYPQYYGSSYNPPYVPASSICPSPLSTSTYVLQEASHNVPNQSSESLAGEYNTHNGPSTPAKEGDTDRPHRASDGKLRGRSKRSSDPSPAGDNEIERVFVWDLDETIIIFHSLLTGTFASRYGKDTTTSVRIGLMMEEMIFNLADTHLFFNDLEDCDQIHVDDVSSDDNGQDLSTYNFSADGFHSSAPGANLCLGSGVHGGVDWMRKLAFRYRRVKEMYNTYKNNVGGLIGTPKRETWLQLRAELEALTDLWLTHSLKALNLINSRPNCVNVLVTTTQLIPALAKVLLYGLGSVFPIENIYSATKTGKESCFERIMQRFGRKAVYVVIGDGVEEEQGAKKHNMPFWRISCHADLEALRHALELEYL
# Target sequence (Q15475 whole entry, looked up): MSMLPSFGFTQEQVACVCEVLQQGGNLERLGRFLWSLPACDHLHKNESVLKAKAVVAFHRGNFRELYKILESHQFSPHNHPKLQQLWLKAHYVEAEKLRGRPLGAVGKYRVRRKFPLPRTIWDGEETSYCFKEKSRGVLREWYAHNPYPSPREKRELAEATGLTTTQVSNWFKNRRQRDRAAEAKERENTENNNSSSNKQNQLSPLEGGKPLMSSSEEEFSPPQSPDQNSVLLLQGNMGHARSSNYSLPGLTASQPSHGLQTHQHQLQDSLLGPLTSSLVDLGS
#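 Compounds are tested against tagged Six1 and Eya2 proteins bridged by glutathione donor and nickel acceptor beads; after a one-hour incubation at 37 °C without light, AlphaScreen emission is recorded.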
# CtBP-E1A inh = inhibitors of CtBP/E1A interaction; AlphaScreen GST-E1A/His-CtBP binding, 1536-well; hits give low values; control for the full effect not named in the record; activity change, % (concentration not given with the values); actives 0.49% (n = 340,000); AID 651724; in the data active means activity change below about -65%; inconclusive means about -30% to -65%; inactive means above about -30%; also: % is scaled to controls: 0 for no effect and ±100 for the full control effect
#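 GST-E1A and His-tagged CtBP (125 nM each as 5X stock) were preincubated with pin-transferred compound for 2 h at 37 °C in the dark, then glutathione donor and nickel acceptor beads were added for 1 h before AlphaScreen reading.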
# PINK1 modulator = changes PINK1 expression | Potency, µM (highest dose often 76.6 µM), for the others: at the top dose activation (PINK1 increase), actives largely listed as activators | PINK1 immunofluorescence, high-content cytometry, 24 h | AID 624263 | actives 0.2% (n = 410,000); active = well fitted activation curve with a large enough effect; inconclusive = small, poorly fitted or top-dose-only effect; inactive = flat fitted curve, though single readings scatter; cell line not stated here;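 also: potency is read from the fitted curve at half-maximal effect; % of control where 0% means no effect; nearly all actives have a fitted effect of over 65% in size; a mitochondrial uncoupler was the plate control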
#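 Fluorescence from anti-PINK1 antibody, together with nuclear and cell stains, was scanned on a laser-scanning cytometer. Before staining, stable-line cells were incubated 24 hours with compounds at 5 concentrations; primary antibody 12 h at 10 degrees C.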
# TRPV1 potentiator = potentiators of human vanilloid receptor 1 (TRPV1); Q8NER1; TRPV1-expressing cells, Fluo-8 calcium influx, capsaicin EC20 potentiation; host cell line not named in the record; control for the full effect not named in the record; potentiation, % at 8.33 µM; actives 0.02% (n = 320,000); AID 540277; active means potentiation above 80%; inconclusive means 30% to 80%; inactive means below 30%; also: 0% is about no effect
#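 Cells expressing TRPV1 were dye-loaded with Fluo-8 and read kinetically: 10 s baseline, 3 min after compound (agonist portion), then 2 min after EC20 capsaicin (allosteric enhancer portion). Calcium-bound dye fluorescence at 480/520 nm.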
# D2 potentiator = human D2 receptor positive allosteric modulation; actives 0.23% (n = 360,000); DiscoveRx D2 beta-arrestin cells, luminescence, 90 min; 100% = 57 uM dopamine signal; potentiation, % (test concentration not listed); P14416; active = potentiation of 50% or more; inconclusive = 30% to 50%; inactive = 30% or less;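 also: compound concentration not given in the record; tested on top of an EC20 dose of dopamine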
#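 D2 cells co-treated with compound plus 50 nM dopamine (EC20) for 90 min at 37 deg C to detect potentiation. Beta-arrestin recruitment was read as enzyme-fragment luminescence after 1 h at ambient temperature. Full response was set by 57 uM dopamine.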
# Sfp inh = blocks B. subtilis Sfp PPTase activity. Q9F4F7. Biochemical Sfp PPTase activity, qHTS. Potency, µM, for inactives: max response, negative = inhibition, hits mostly inhibitors. actives 3.5% (n = 310,000). AID 1490; active = well fitted inhibition curve with a large enough effect; inconclusive = small, poorly fitted or top-dose-only effect, or another doubt; inactive = no such curve, though single readings can be large or run the other way;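 also: the enzyme is Sfp with the accession as filed and its product quenches rhodamine fluorescence; potency is read from the fitted curve at half-maximal effect; 0% = enzyme reaction without inhibitor and -100% = no enzyme wells; top concentration of the series not given in the record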
#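 Reaction rates are the 30-min fluorescence difference (ex 525, em 598 nm) in wells containing 15 nM Sfp, 5 uM rhodamine-CoA and 12.5 uM BHQ-2-YbbR at pH 7.6 with 10 mM MgCl2.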
# D2 ag = agonists of human D2 dopamine receptor (beta-arrestin) | P14416 | activation, % (concentration not given with the values) | DiscoveRx PathHunter D2 beta-arrestin, luminescence, 90 min; 100% = 57 uM dopamine signal | actives 0.084% (n = 360,000) | AID 624465; in the data active = activation above about 40%; inconclusive = about 15% to 40%; inactive = below about 15%; also: compound concentration not given in the record; the text of the record calls up to 30% inactive
#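 DiscoveRx PathHunter D2 beta-arrestin cells (2,100/well) attached overnight, then compound-stimulated 90 min at 37 C in HBSS/10 mM HEPES/0.1% Tween-20 buffer; beta-galactosidase complementation read by luminescence after 1 h at ambient temperature. Dopamine 57 uM final (EC100) as control.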
# An asterisk follows results filed as active; ? = inconclusive; nt = no result given; & = joins results of further samples; [ ] = dose if it differs, or a comment. The order is random, and some 3.7% of all compounds hit somewhere here.
SMILES,Six1-Eya2 blk,CtBP-E1A inh,PINK1 modulator,TRPV1 potentiator,D2 potentiator,Sfp inh,D2 ag
CCC(CC)COC(=O)C1=C(C)NC(=O)NC1c1ccc([N+](=O)[O-])cc1 (stereo not given),-0.6,nt,0.4%,-2.6,-0.3,7.1%,-2.5
Cc1cccc2cc(COC(=O)C(C)(C)C)c(=O)[nH]c12,-0.1,-0.1,2.3%,5.4,-1.2,4.2%,-2.9
O=C(Nc1ccon1)c1sc2ccccc2c1Cl,-1.6,4.2,6.7%[38.3 µM],-13.8,-10.0,6.4%,1.5
CC1Cc2ccccc2N1C(=O)CSc1nnc(-c2ccc(S(=O)(=O)N3CCCC3)cc2)n1C (stereo not given),2.1,11.3,0.0%,1.2,-6.4,0.8%,0.0
COc1cccc(C(=O)O/N=C(\C)c2cnccn2)c1,2.1,-2.3,2.2%,2.4,-8.7,13.4%,-3.1
CCCOC(=O)C1C2C=C[C@]3(CN(CCc4ccccc4)C(=O)[C@H]13)O2 (stereo not given in full),3.4,-1.0,0.4%,3.3,-4.8,5.0%,-2.3
COc1ccccc1N1CCN(C(CNC(=O)c2ccc3c(c2)OCO3)c2cccnc2)CC1 (stereo not given),1.3,-5.6,3.7%,-2.2,-21.5,-0.8%,3.9
O=C1NC[C@H](CCCCN2C[C@H](Cc3ccc(O)cc3)N(CCC3CCCCC3)C(=O)C2=O)N(CCC2CCCCC2)C1=O,16.9,0.0,0.5%,nt,nt,nt,nt
O=C1c2ccncc2C(=O)N1Cc1cccc(Cl)c1,-7.7,0.0,2.7%,-12.0,-8.7,1.8%,-3.7
COc1ccc(OCC(=O)Nc2ccc3c(c2)nc2n3CCSC2)cc1,2.9,-5.7,3.3%,0.5,-8.5,4.7%,-0.5
COc1cc(CCC(=O)Nc2ncc(C)s2)cc(OC)c1OC,-6.0,3.1,-0.6%,0.6,-3.1,1.6%,2.9
O=C(Nc1ccc(C(=O)N2CCCCC2)cc1)c1cccs1,4.0,-8.6,1.3%,-0.2,-3.9,34.8%[activator],-12.7
COc1cc2ccnc(Cc3cccc(OC)c3OC)c2cc1OC,24.4,-4.3,1.0%,-14.4,55.3*,-4.9%,15.0
Cc1cc(C)cc(Oc2ccc(S(=O)(=O)N3CCN(C)CC3)cn2)c1,-7.8,2.1,-1.3%,-0.7,1.1,nt,-4.0
CCOC(=O)c1c(C)[nH]c(C(=O)COC(=O)c2ccccn2)c1C,-7.8,-4.3,-36.2%[inhibitor][38.3 µM],3.5,8.9,-5.7%,-0.1
CCN(CC)S(=O)(=O)c1cccc(-c2n[nH]c(=S)n2/N=C/c2ccc(OC(F)F)cc2)c1,-17.5,-14.2,-2.2%,0.6,-24.5,?,-3.5
NC(=O)CSc1nnc(-c2ccccc2)c(-c2ccccc2)n1,2.4,-3.5,-0.2%,-21.0,-3.6,12.1%,-1.7
O=C(c1ccccc1)c1nc[nH]c1C(=O)Nc1ccccc1,4.7,-1.7,-0.8%,9.1,-6.1,13.3%,-2.2
CCC(C)c1ccc(NC(=S)NC(C)C2CCCO2)cc1 (stereo not given),-23.5,nt,0.4%,-5.4,-4.9,-11.6%,-3.5
COc1ccc(N2CCN(C(=O)CN(C)S(=O)(=O)c3cccs3)CC2)cc1,-5.3,-27.4,1.7%&0.9%,10.0,-6.5,12.2%,-3.5
CCOc1ccc(CCNC(=O)c2cc3c(s2)CS(=O)(=O)C3)cc1OCC,-2.8,2.8,0.2%,-9.2,-17.7,10.3%,-5.4
CCS(=O)(=O)N1CCN(C(=O)c2ccco2)CC1,7.1,6.2,nt,7.8,6.2,7.1%,-2.8
Cc1ccc(NC(=O)CN2CCN(C(=O)C3CC3)CC2)c(F)c1,11.1,-1.3,-0.8%,nt,-13.7,nt,-1.4
CC(C)(C)NC(=O)C(c1ccc(F)cc1)N(Cc1cccs1)C(=O)c1ccc(CN2CCOCC2)o1 (stereo not given),9.0,-22.3,-4.2%,-8.2,-1.2,11.8%,-0.2
Cc1[nH]nc2c1C(c1cc(Br)cs1)C(C#N)=C(N)O2 (stereo not given),-10.7,-14.6,-1.8%,-6.2,-23.6,?,-1.4

# Reprinted from the part before: 2 compounds, followed by the next part.
SMILES,Six1-Eya2 blk,CtBP-E1A inh,PINK1 modulator,TRPV1 potentiator,D2 potentiator,Sfp inh,D2 ag
CC(C)(C)NC(=O)C(c1ccc(F)cc1)N(Cc1cccs1)C(=O)c1ccc(CN2CCOCC2)o1 (stereo not given),9.0,-22.3,-4.2%,-8.2,-1.2,11.8%,-0.2
Cc1[nH]nc2c1C(c1cc(Br)cs1)C(C#N)=C(N)O2 (stereo not given),-10.7,-14.6,-1.8%,-6.2,-23.6,?,-1.4
O=C(Nc1ccc2c(c1)OCCO2)c1ccccc1,-19.5,-8.9,1.1%,1.8,-5.0,0.2%,0.7
CCOC(=O)N/N=C/c1ccc(F)cc1F,1.0,8.8,1.9%,-0.2,-12.0,-12.1%,0.3
CC(OC(=O)C1=COCCO1)C(=O)c1ccc(Br)cc1 (stereo not given),-5.0,-10.8,-1.5%,nt,-2.4,nt,-0.1
COc1ccc(CNC(=O)c2cccc3c(-c4ccc(F)c(F)c4)coc23)cc1OC,-10.1,-24.7,-0.7%,nt,-10.5,nt,7.7
O=C(N/N=C/c1ccc(-c2ccc(Cl)c(C(=O)O)c2)o1)c1cc2c(ccc3ccccc32)o1,?,-85.5*,2.9%,-25.8,5.4,?,5.3
COc1cccc(CNc2cnc3ccccc3c2)c1O,-1.0,4.3,-1.1%[38.3 µM],4.8,7.7,3.5%,4.4
COc1cccc(NC(=O)CC2C(=O)NC3CCCCC3N2C(=O)c2ccc(F)cc2)c1 (stereo not given),5.4,6.4,nt,3.9,-13.2,10.1%,-1.6
CC(C)C1C(=O)N(Cc2cn(CCC3OCCCO3)nn2)CCS(=O)(=O)N1Cc1ccc(-c2ccc(Cl)cc2)cc1 (stereo not given),-3.8,5.6,-1.0%,nt,2.8,nt,-1.3
Cc1ccc(S(=O)(=O)NCCC(=O)N2CCC(C)CC2)cc1,3.7,12.3,-0.4%,-11.1,-0.3,nt,-1.0
O=[N+]([O-])c1cc(C(F)(F)F)ccc1N1CCCC(O)C1 (stereo not given),-11.7,-18.3,0.1%,2.4,-11.4,19.0%,-6.1
Cc1cc(OCc2cc(C(=O)NCC3(C)COC3)no2)cc(C)c1Cl,0.1,9.9,-1.1%,-17.3,-6.5,-12.1%,6.0
CC1(C)CC(=O)C(C=Nc2cc(C(=O)c3ccccc3)ccc2N)=C(O)C1,-9.6,-1.1,2.7%,-12.5,-39.1,-12.7%,-16.8
Cc1nn(-c2ccccc2)c(C)c1/C=C/C(=O)OCC(=O)Nc1ncc(Cl)cc1Cl,-0.6,-6.6,11.3%,0.6,8.2,-10.3%,-0.9
O=C(COc1ccc(Cl)cc1Cl)NCCCn1ccnc1,-3.1,-2.1,1.1%,-45.0,-18.6,-4.6%,-0.7
COc1ccc(S(=O)(=O)N2CCCCC2)cc1NC(=O)Cc1c[nH]c2ccccc12,-9.2,-10.3,-0.8%,7.3,3.9,17.6%,-1.8
O=C(Cc1ccccc1)NC(c1ccco1)c1c(O)ccc2ccccc12 (stereo not given),-5.8,-1.1,-0.4%,2.3,-5.3,-9.0%,-0.6
COc1cc(-n2c(=O)c3ccccc3n(Cc3cccc(C)c3)c2=O)cc(OC)c1OC,1.2,7.5,2.4%,-5.2,-1.5,?,-11.0
COc1ccc(S(=O)(=O)Nc2c(C)cc(C)cc2C)c2cccnc12,2.4,23.0,3.4%,29.6,-3.3,3.1%,-3.5
Cc1cnn(-c2cc(N/N=C/c3ccccc3Cl)ncn2)c1,22.2,0.0,16.2%,-14.1,-23.0,6.5%,-3.7
Cc1ccc(CCNC(=O)C2CCCN(S(=O)(=O)c3c(C)noc3/C=C/N(C)C)C2)cc1 (stereo not given),-3.7,-2.5,12.4%,7.4,-0.9,16.4%,-1.3
Cn1nccc1C(=O)N/N=C/c1c(O)ccc2ccccc12,-86.7*,-82.8*,5.5%,-12.1,-39.5,13.8%,-3.5
CCN(CC)C(=O)c1ccc(Nc2nnc(-c3ccc(O)cc3)c3ccccc23)cc1,-27.5,3.5,1.5%,10.0,1.9,-3.1%,1.0
CCOc1ccc(N2CC(C(=O)Nc3ccc(S(=O)(=O)N4CCCCC4)cc3)CC2=O)cc1 (stereo not given),-8.8,0.6,10.8%,2.8,19.1,nt,4.5
O=C1CCC(=O)N1CC(=O)N1c2ccccc2Sc2ccccc21,-0.5,2.2,?,0.1,-6.7,12.7%,-1.4
O=C(CN(Cc1ccco1)C(=O)c1ccccc1)Nc1ccc(Cl)c(Cl)c1,3.2,-4.8,-0.5%,-4.1,-8.4,-8.6%,-2.5
SMILES,Six1-Eya2 blk,CtBP-E1A inh,PINK1 modulator,TRPV1 potentiator,D2 potentiator,Sfp inh,D2 ag
Cc1ccccc1NC(=S)N(Cc1ccccn1)Cc1ccccc1Cl,-8.0,-2.7,2.5%,-0.7,-0.6,2.0%,2.3
COc1cccc(/C=N/n2c(SC)nnc2-c2ccccc2)c1O,-6.0,-0.6,11.5%,-17.5,-2.7,-24.6%,1.3
COC(=O)c1ccc(N2C(=O)CC(N(C)CCc3ccc(OC)c(OC)c3)C2=O)cc1 (stereo not given),4.3,-1.2,1.8%,-27.0,-11.5,-13.5%,0.9
O=C(Nc1ccccc1-c1ccccc1)C1CCCN(c2ncccn2)C1 (stereo not given),-0.5,-15.1,0.1%[38.3 µM],-10.9,0.4,17.9%,-2.2
Cc1cc(C)cc(Oc2nc(C(F)(F)F)nc3ccccc23)c1,24.5,37.4,?,5.8,-16.0,-14.2%,-0.3
COCCn1c(=S)[nH]c2cc(C(=O)N(CCO)Cc3ccccc3)ccc2c1=O,-0.5,3.7,0.7%,4.5,-12.1,3.8%,-11.6
CCc1nnc(NC(=O)C2CCN(S(=O)(=O)Cc3ccccc3)CC2)s1,3.6,-2.0,3.2%,1.7,10.8,8.6%,2.9
Cn1c(=O)c2[nH]c(Cc3cccc4ccccc34)nc2n(C)c1=O,3.6,1.6,16.6%,nt,12.7,nt,5.5
COc1ccc(-c2csc(Nc3ccccc3)[n+]2Cc2ccccc2)cc1,-25.5,nt,0.1%,8.3,-5.7,-15.1%,-2.6
COc1ccc(CNC(=O)C2CCCN(c3nn4c(=O)cc(C)nc4s3)C2)cc1 (stereo not given),-0.7,nt,-0.5%,28.4,-3.8,15.3%,-2.7
COc1ccc(-c2coc3c(C(=O)NCc4cccc(Cl)c4)cccc23)c(C)c1,2.0,0.3,1.1%,nt,-4.7,nt,-5.3
